# Screening results (PubChem BioAssay)
# HNF4A DNA FP: change in binding of human HNF4 alpha to DNA. HNF4a-FITC DNA binding, fluorescence polarization, 1 h. 0.3% of 360,000 active. AID 1224865. activity change, % at 10 µM; in the data active means activity change above about 30%, passing the limit was not always enough;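 further: controls were the assay level and a saturating level of protein; the project sought stronger binding though the title names inhibitors; some compounds called inactive have numbers as strong as hits; positive values seem to mean higher polarization but the record does not say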
# Target sequence (P41235 whole entry, looked up): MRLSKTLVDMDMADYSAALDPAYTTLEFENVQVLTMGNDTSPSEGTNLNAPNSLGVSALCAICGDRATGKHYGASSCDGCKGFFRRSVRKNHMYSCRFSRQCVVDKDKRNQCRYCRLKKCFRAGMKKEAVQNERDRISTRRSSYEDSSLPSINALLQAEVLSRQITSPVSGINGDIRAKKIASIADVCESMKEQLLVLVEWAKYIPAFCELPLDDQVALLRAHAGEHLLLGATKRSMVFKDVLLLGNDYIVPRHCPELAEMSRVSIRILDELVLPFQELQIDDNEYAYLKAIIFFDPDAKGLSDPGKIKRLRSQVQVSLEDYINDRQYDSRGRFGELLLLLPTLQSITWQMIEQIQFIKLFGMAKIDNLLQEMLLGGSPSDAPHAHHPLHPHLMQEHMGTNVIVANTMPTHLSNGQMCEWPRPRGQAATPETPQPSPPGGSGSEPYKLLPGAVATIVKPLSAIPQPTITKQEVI
# ALR H2O2 inh: inhibitors of human sulfhydryl oxidase ALR; 3.8% of 290,000 active; purified ALR, DTT oxidation, H2O2 HRP-luminol luminescence; inhibition, % (test concentration not listed); P55789;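 active means mean and each replicate at 75% or more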;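 further: stock transfer was 7.5 nL into about 7.5 µL; 0% = neutral wells and 100% = wells with inactivated enzyme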
# Target sequence (P55789 whole entry, looked up): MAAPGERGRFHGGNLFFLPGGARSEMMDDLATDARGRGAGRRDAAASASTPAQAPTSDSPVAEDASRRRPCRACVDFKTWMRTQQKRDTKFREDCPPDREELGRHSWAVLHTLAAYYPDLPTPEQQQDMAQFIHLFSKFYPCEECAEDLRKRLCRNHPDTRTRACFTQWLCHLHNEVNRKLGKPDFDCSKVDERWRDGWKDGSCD
# FGF22 binding: FGF22 (human) thermal shift binding. AID 651658. recombinant FGF22 thermal shift, SYPRO orange fluorescence; percent of sucrose octasulfate shift, DMSO zero. 1.5% of 340,000 active. calls only at 9.99 µM. Q9HCT0;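 active means melting point raised past a set limit in the mean and every replicate; three in four hits are not shown here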
# Ecoli growth: E. coli growth inhibition; Escherichia coli growth, OD600, 23 h; hits give low values; OD600 absorbance (concentration not given with the values); 0.21% of 330,000 active; AID 1053175;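 active means OD600 absorbance below the run mean of sample wells minus 3.6 SD, in any replicate, cut at about 0.56 in these data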;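 further: stock transfer was 300 nL into about 60 µL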
# B2AR ag: activates human beta-2 adrenergic receptor causing internalization | 0.43% of 340,000 active | Am2.2-beta2AR cells, FAP receptor internalization, flow cytometry; reference of the scale not given here | response, % (no concentration beside the values) | AID 504454 | P07550;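 active means response above a set limit, near 3 SD of response in nonfluorescent compounds, cut at about 42% in these data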;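 further: stock transfer was 100 nL into about 11 µL; a reference agonist was the positive control; negative values mostly stem from fluorescent compounds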
# rRNA inh HTS: inhibitors of bacterial rRNA selective over humanized ribosomes | GFP signal change (wild-type ribosome), % (concentration not given with the values) | AID 720706 | E. coli WT GFP vs humanized-ribosome RFP mutants, fluorescence, 24 h; hits give low values; DMSO median 0, no signal -100 | 1.6% of 350,000 active;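 active means significant combined selectivity score with lowered wild-type GFP, culture density cut under 30%, mutant RFP and density less affected; inactive means any of these conditions unmet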; further: one replicate is shown; some compounds called inactive have numbers as strong as hits
# UCH37 inh: human UCH37 deubiquitinating enzyme inhibition | Q9Y5K5 | purified proteasome/UCH37, Ub-AMC cleavage fluorescence | inhibition, % (test concentration not listed) | 0.33% of 330,000 active | AID 588478;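 active means mean of two replicates above 20%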;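 further: 0% = compound-free wells with enzyme and 100% = wells lacking proteasome; stock transfer was 100 nL into about 20 µL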
# Target sequence (Q9Y5K5 whole entry, looked up): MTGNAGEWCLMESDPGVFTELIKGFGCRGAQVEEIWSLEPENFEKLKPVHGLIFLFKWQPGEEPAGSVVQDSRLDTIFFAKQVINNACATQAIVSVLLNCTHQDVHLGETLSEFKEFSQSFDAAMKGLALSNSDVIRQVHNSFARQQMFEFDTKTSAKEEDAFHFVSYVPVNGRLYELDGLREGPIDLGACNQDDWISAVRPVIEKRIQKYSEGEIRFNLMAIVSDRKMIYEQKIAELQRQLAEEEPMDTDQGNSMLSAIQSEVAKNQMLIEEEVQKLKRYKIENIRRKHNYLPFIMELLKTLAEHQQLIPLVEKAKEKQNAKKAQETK
#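 assay system = human UCH37 enzyme supplied as purified proteasome complex | amount = proteasome at 0.15 nM in the dispensed enzyme solution | schedule = 30 min compound-proteasome preincubation then 25 min substrate reaction, room temperature | measured by = fluorescence, ex 355 nm, em 460 nm | benchmarks = no-proteasome wells (full inhibition) and compound-free wells (no inhibition)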
# rRNA inh HTS OD600: also measured in rRNA inh HTS; calls as there; OD600 change, %; measured here: OD600 growth;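 optical density of the mix in the first replicate; 0 = DMSO median and -100 = no signal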
# rRNA inh HTS RFP: also measured in rRNA inh HTS; calls as there; RFP signal change, %; measured here: RFP humanized mutant strains;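 first replicate; 0 = DMSO median and -100 = no signal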
# Numbers without * were called inactive; i = inactive; nt = not tested or not shown.
Molecule	HNF4A DNA FP	ALR H2O2 inh	FGF22 binding	Ecoli growth	B2AR ag	rRNA inh HTS	rRNA inh HTS OD600	rRNA inh HTS RFP	UCH37 inh
COc1ccc(CNC(=O)CCCn2nc([N+](=O)[O-])cc2C)cc1	3.0	-1	i	0.67	0	2	-2	-2.9	0.9
CN(Cc1ccccc1)S(=O)(=O)CCNC(=O)c1ccc2c(c1)OCO2	0.9	nt	i	0.68	-2	3	3	1.4	6.0
COc1ccc(CSc2nc(CSC)cc(N3CCOCC3)n2)cc1	7.3	-9	i	0.7	-18	-12	-9	6.0	4.9
Cc1ccc2c(c1)C(=O)C(=O)N2CC(=O)Nc1ccccc1NC(=O)c1ccccn1	-1.5	0	i	0.68	-6	6	-2	2.0	0.6
CCCCCn1c(=S)[nH]c2cc(C(=O)N3CCN(C(=O)OCC)CC3)ccc2c1=O	-4.5	-10	i	0.7	2	-3	5	-2.1	5.2
NC(=O)CSc1nnc(-c2ccco2)n1-c1ccc(F)cc1	-0.3	nt	i	nt	nt	10	20	1.7	nt
Brc1ccc(-c2csc(N/N=C/c3cccnc3)n2)cc1	0.1	-14	nt	nt	5	-4	-2	-1.6	nt
COc1cccc(Oc2nnnn2-c2ccccc2)c1	-3.0	-15	nt	0.72	-1	-1	-6	-2.3	1.7
C#CCNC(=O)C1=C[C@H](c2ccc3c(c2)OCO3)C[C@H](OCc2ccc(CO)cc2)O1	0.8	19	i	nt	-5	6	-1	2.5	4.4
CCC(Sc1nc2n[nH]c(C)c2c(=N)n1-c1ccc(C)c(Cl)c1)C(=O)N1CCOCC1 (stereo not drawn)	1.4	-11	nt	0.79	9	nt	nt	nt	-2.0
S=C(NCC1(c2ccccc2)CCCC1)Nc1ccccc1	-0.3	-18	i	0.71	22	7	5	3.0	1.5
Cc1cc(C)nc(/N=C(/NC(=O)Nc2ccc(Cl)c(Cl)c2)Nc2cccc(Cl)c2)n1	-0.1	-22	nt	nt	-2	nt	nt	nt	nt
CCN(CC)C(=O)c1cccc(-c2csc(C(O)c3ccco3)n2)c1 (stereo not drawn)	5.1	nt	i	nt	nt	2	9	18	nt
COc1ccccc1C(=O)NC(=O)COC(=O)c1ccc(C)o1	-5.0	-10	nt	0.65	-1	7	4	-3.8	-0.2
CC(=O)Nc1ccc(N2CCN(c3ccc(C(F)(F)F)cn3)CC2)nc1	9.0	-14	i	0.7	-7	6	9	-0.2	1.6
Cc1cc(C)nc(SCc2cn3ccccc3n2)n1	5.8	-3	i	0.64	-11	-12	4	7.2	6.5
COCCCn1c(SCC(=O)NCc2ccccc2)nc2ccccc2c1=O	-1.8	nt	i	0.67	16	-3	-2	-3.7	1.1
Cc1sc(NC(=O)Cn2c(=O)oc3ccccc32)nc1-c1ccc(Cl)cc1	-2.2	-5	i	0.66	16	-5	-11	-0.7	-1.8
CC(=O)c1ccc(NC(=O)C(C)OC(=O)c2ccc(NS(=O)(=O)c3ccc4[nH]c(=O)[nH]c4c3)cc2)cc1 (stereo not drawn)	0.2	nt	i	0.7	1	-1	0	0.0	2.7
COc1cc(NC(=O)Cc2ccccc2)ccc1NC(=O)c1ccco1	-0.1	-24	nt	0.72	-15	nt	nt	nt	1.0
CCOC(=O)CSC(=S)NC(=O)c1ccc(OC)cc1	-0.4	100*	nt	0.67	15	nt	nt	nt	1.3
COc1ccccc1C(=O)NC(CCSC)C(=O)OC(C)C(=O)NC1CC1 (stereo not drawn)	2.9	nt	nt	0.68	8	9	12	-1.0	1.7
COc1ccc(-c2cc(Cl)cc3c(=O)c4ccccc4n(C)c23)cc1F	-1.6	-10	i	0.81	-5	17	7	5.5	3.4
COCC(=O)Nc1c(C(=O)Nc2ccc3c(c2)OCCO3)oc2ccccc12	-8.3	nt	i	0.7	-3	-23	-22	-6.4	1.0
Clc1cc(Br)ccc1OCCCNCc1ccccc1	0.1	-41	nt	0.61	10	nt	nt	nt	5.9
O=C(Cc1cccs1)Nc1ccccc1	0.1	-9	nt	0.71	2	2	13	-0.7	5.0
CCOP(=O)(OCC)c1nc(-c2ccccc2)oc1N1CCCCC1	0.7	40	i	0.69	-3	2	5	6.8	-389
O=C(CN1C(=O)NC2(CCCCCCC2)C1=O)Nc1ccc(Cl)cc1	4.0	0	i	0.69	2	-4	5	0.0	0.8
O=C(Nc1cccc(F)c1)Nc1ccc2c(c1)CCC2	2.1	-1	i	0.65	2	-5	-1	0.9	3.0
Nc1nc(CSc2nc3ccccc3[nH]2)nc(N2CCOCC2)n1	-0.8	-4	nt	0.72	-4	nt	nt	nt	1.1

# The final 2 compounds of the section before come first, to join the parts.
Molecule	HNF4A DNA FP	ALR H2O2 inh	FGF22 binding	Ecoli growth	B2AR ag	rRNA inh HTS	rRNA inh HTS OD600	rRNA inh HTS RFP	UCH37 inh
O=C(Nc1cccc(F)c1)Nc1ccc2c(c1)CCC2	2.1	-1	i	0.65	2	-5	-1	0.9	3.0
Nc1nc(CSc2nc3ccccc3[nH]2)nc(N2CCOCC2)n1	-0.8	-4	nt	0.72	-4	nt	nt	nt	1.1
COc1cc(C(=O)Nc2ccc(C(=O)O)cc2)ccc1OC(C)=O	6.1	26	i	0.63	3	16	11	-3.6	1.7
COC(=O)COc1ccc(S(=O)(=O)Nc2ccc(NC(C)=O)cc2)cc1C	-0.7	1	nt	0.69	-12	nt	nt	nt	0.2
C/C(=N/NC(N)=S)c1ccc(Br)s1	2.0	11	i	nt	-1	9	-7	-3.9	nt
CCCCNC(=O)C1(C)CCN1C(=O)c1ccc(C)c(F)c1 (stereo not drawn)	-7.3	nt	i	nt	nt	8	8	0.4	nt
Cn1c(COc2ccccc2)nnc1SCC(=O)Nc1ccc(S(N)(=O)=O)cc1	2.8	-1	nt	0.69	1	nt	nt	nt	0.0
O=C(CS(=O)(=O)Cc1ccccc1)Nc1ccc(S(=O)(=O)N2CCCCCC2)cc1	2.0	-1	nt	0.72	-10	nt	nt	nt	2.7
NS(=O)(=O)c1ccc(N2C(=O)C(=O)/C(=C(/O)c3ccccc3)C2c2ccc(Cl)cc2)cc1 (stereo not drawn)	2.0	nt	i	0.7	-1	-5	-2	1.1	9.9
CCCNC(=O)N[C@@H](CCSC)C(=O)OC	-3.7	-1	nt	0.66	-3	nt	nt	nt	3.8
CN(C)Cc1c(O)ccc2c1O/C(=C\C=C\c1ccccc1)C2=O	22	nt	i	0.7	26	23	6	2.2	15
Cc1cc(C)c(C#N)c(SCc2[nH]nc3c2C(c2ccc(F)cc2)C(C#N)=C(N)O3)n1 (stereo not drawn)	2.6	20	nt	0.75	0	nt	nt	nt	1.9
Cc1c(C(=O)OC/C(O)=C(\C#N)c2nc3ccccc3[nH]2)oc2ccc(Br)cc12	20	3	i	0.77	-12	15	11	2.3	0.9
COCCN(Cc1ccccc1)C(=O)c1ccc(C(=O)c2ccccc2)cc1	3.7	nt	i	0.66	-3	-12	-36	-2.7	0.7
CCN(CC)C(=O)C1c2ccccc2Oc2ccccc21	-118	3	i	nt	8	19	6	4.7	nt
CCC(=NCCc1c(C)[nH]c2ccccc12)C1=C(O)CC(c2ccccc2)CC1=O (stereo not drawn)	0.7	14	i	0.71	-26	-2	-35	-6.4	2.8
CC(C)Cc1ccc(C(C)NC(=O)Cc2ccc(S(=O)(=O)N3CCOCC3)s2)cc1 (stereo not drawn)	1.7	-14	i	0.64	3	0	4	-2.1	0.8
Cc1c2c(nc3ccccc13)CC(C)(C)CC2=O	-1.3	94*	i	0.73	-6	-5	-7	-2.3	2.6
Cc1ccc(CSCC(=O)NCc2cccnc2)cc1	-0.1	-19	i	0.7	-1	-12	-8	-11	6.8
Cc1ccc(C)c(-c2cc(C(=O)Nc3nccs3)c3ccccc3n2)c1	5.7	-5	i	0.69	19	-3	12	9.4	1.4
COc1ccc2nc(SCC(=O)O)nc(C)c2c1	1.3	-5	nt	0.72	21	nt	nt	nt	-182
COc1ccccc1CNC(=O)c1ccc(NC(=O)CC2SC(N3CCCC3)=NC2=O)cc1 (stereo not drawn)	4.3	1	i	0.67	3	3	6	0.5	3.7
COc1ccc(S(=O)(=O)N2CCC(C(=O)N3CCCCC3)CC2)cc1Cl	1.0	-2	nt	0.68	-5	nt	nt	nt	5.2
O=C(Nc1cscc1S(=O)(=O)c1ccc(Cl)cc1)c1ccccc1Cl	3.3	-4	i	0.67	-1	-20	13	-3.3	6.9
O=c1cc(CCc2ccccc2)oc2cccc(O)c12	3.4	nt	i	nt	0	nt	nt	nt	nt
O=C(C/C=N\OCc1ccc([N+](=O)[O-])cc1)Nc1ccc(Br)cc1	-1.8	-2	i	nt	-5	-13	2	4.6	nt
CCCCCCCCCS(=O)(=O)N/N=C/c1cccc([N+](=O)[O-])c1	-0.8	4	nt	nt	-2	nt	nt	nt	nt
CCCCC(=O)OCc1c(-c2ccccc2)ncc2ccccc12	-1.4	-9	i	0.64	-11	-21	-29	-12	0.5
CC(NS(=O)(=O)c1ccc(OCC(=O)Nc2cccc([N+](=O)[O-])c2)cc1)c1ccccc1 (stereo not drawn)	0.1	nt	i	0.72	9	4	7	-1.3	3.2
CCOC(=O)c1sc(Nc2cccc(C)c2C)nc1C	nt	1	nt	0.65	nt	nt	nt	nt	-0.8
C=CCn1c(C)cc(C(=O)COC(=O)C2CC(=O)N(CCc3ccc(OC)c(OC)c3)C2)c1C (stereo not drawn)	-0.2	nt	i	nt	11	-6	-5	8.7	nt
CCOC(=O)[C@@H]1[C@H]2COc3ccc(Br)cc3[C@H]2N2C(=O)N(c3ccc(Cl)cc3)C(=O)[C@]12C	-1.9	-4	i	nt	-6	3	9	0.0	0.0
Cc1nc2ccc(NC(=O)N(C(C)C)C(C)C)cc2s1	-2.0	-15	nt	0.66	3	nt	nt	nt	-2.6
CN1C(=O)C(=O)N(CC(=O)Nc2ccccc2OC(F)F)C1=O	0.5	nt	i	0.67	-1	nt	nt	nt	2.0
COc1ccc(NS(=O)(=O)c2ccc(-c3ccccn3)s2)cc1	2.8	11	i	0.63	-10	nt	nt	nt	1.6
COC(=O)C1=C[C@@H](C(=O)OC)[C@@H]2C3=C(C(=O)[C@]2(C)NC(=O)c2ccccc2)[C@H](C)n2c(=O)n(C)c(=O)n2[C@@H]3C1	-0.5	2	i	nt	-4	8	16	-1.2	0.4
COc1ccc(CC(=O)NC2CC2)cc1OC	2.3	nt	i	0.64	-4	7	9	-0.4	-1.1
O=C1Cc2ccccc2C(=O)N1	2.5	nt	i	nt	nt	4	9	0.6	nt
Cc1cc(=O)c(C(=O)O)cn1-c1ccc(C(C)C)cc1	2.4	-3	i	0.68	1	-2	3	7.8	0.8
COCCn1c(COc2ccc(Cl)cc2)nnc1SCC(N)=O	-2.4	0	i	0.71	1	9	-3	-0.8	2.3
Cc1ccc(NC(=O)c2oc3ccccc3c2NC(=O)C2CC2)cc1	5.6	1	i	0.72	2	2	2	-0.7	-6.6
Cc1ccc(-n2nc(C)c(C(=O)Nc3cccc(C(=O)NC4CC4)c3)n2)c(C)c1	-2.6	-3	i	0.69	0	6	-16	-3.1	1.6

# An excerpt. The share of hits here may be higher or lower than overall.
